# PD-1 reversal – activators reversing PD-1 mediated T-cell inhibition. primary human CD4 T cells, PD-L1 beads, CellTiter-Glo 96 h. activation, % (no concentration beside the values). 29,000 tested, under 10 active;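 active = replicate mean of 50% or more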;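 also: 0% = median vehicle wells and 100% = positive control; 100 nL library stock added to about 50 µL; numbers are from one replicate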
# YB-1 expr inh – YB-1 expression inhibition; U2OS, qRT-PCR YB-1 vs CDIP delta delta Cp, 16 h; hits give high values; zero = DMSO, each unit about twofold; delta delta Cp (YB-1 minus CDIP) (no concentration beside the values); 30,000 compounds, 0.37% hits; AID 434959;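 active = delta delta Cp rounded down to an integer at or above 3, about 3 SD of DMSO wells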;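 also: higher means less YB-1 transcript or more CDIP transcript relative to DMSO; stock transfer was 100 nL into about 100 µL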
# Hedgehog inh – Sonic Hedgehog pathway inhibition; Shh-LIGHT2 Gli-luciferase reporter, 30 h; inhibition, % (test concentration not listed); 22,000 compounds, 2.1% hits; AID 2313;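 active = replicate mean of 65% or more; inconclusive = mean lower but half the replicates past it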;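 also: pathway switched on by Shh-conditioned medium diluted 1 in 25 in low serum; 100 nL library stock added to about 40 µL; 0% = median of neutral wells and 100% = positive control level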
# MITF inh – blocks MITF activity; AID 2240; TRPM1 promoter luciferase, luminescence, 24 h; inhibition, % (no concentration beside the values); 37,000 compounds, 0.28% hits;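 active = most replicates at 85% or more, or half of them and the mean; inconclusive = half reach 85% but not the mean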;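 also: human melanocyte line stably carrying TRPM1 promoter luciferase reporter; 0% = vehicle wells and 100% = a positive control; the first replicate is given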
# * = called active by the depositor; ? = inconclusive; . = no result given. A portion of the library; count on the stated rates, not on these rows.
SMILES,PD-1 reversal,YB-1 expr inh,Hedgehog inh,MITF inh
O=C(CC(NC1CCCCC1)C(=O)O)Nc1cccc(Cl)c1 (stereo not drawn),1.8,.,.,-11
CC(C)NC(=O)Nc1ccc2c(c1)C(=O)N([C@@H](C)CO)C[C@@H](C)[C@@H](CN(C)C)O2,2.8,0.23,.,-20
COc1ccc(CN(C)C[C@H]2Oc3c(NC(=O)c4ccncc4)cccc3C(=O)N([C@H](C)CO)C[C@@H]2C)cc1,-1.7,0.23,-2,-1
Cc1ccc(S(=O)(=O)Nc2cccc3c2O[C@@H](CN(C)C(=O)NC2CCCCC2)[C@H](C)CN([C@@H](C)CO)C3=O)cc1,.,-0.33,-40,-3
C[C@@H]1CN([C@@H](C)CO)C(=O)c2cccc(NS(=O)(=O)c3ccc(F)cc3)c2O[C@H]1CN(C)Cc1ccc(Cl)c(Cl)c1,2.2,-0.87,-10,-20
C[C@@H]1CCCCO[C@@H](CN(C)C(=O)NC2CCCCC2)[C@@H](C)CN([C@H](C)CO)C(=O)c2cc(NS(=O)(=O)c3ccccc3)ccc2O1,.,-0.082,-16,1
C[C@H]1CN([C@@H](C)CO)C(=O)c2cccc(NC(=O)C3CCOCC3)c2O[C@H]1CN(C)S(C)(=O)=O,3.3,0.022,-20,-5
Cc1cc(C(=O)N(c2ccccc2)C(C)C2CC2)c(Cl)cc1Cl (stereo not drawn),-1.7,-0.8,10,30
Cc1ccc(S(=O)(=O)N(C)C[C@H]2Oc3ccc(N(C)C)cc3CC(=O)N([C@@H](C)CO)C[C@@H]2C)cc1,.,-0.2,-12,8
Cc1ccc(S(=O)(=O)Nc2cccc3c2O[C@@H](CN(C)C)[C@@H](C)CN([C@H](C)CO)C3=O)cc1,.,0.2,12,-12
COc1ccc(NC(=O)N(C)C[C@@H]2Oc3c(NS(=O)(=O)c4ccc(OC)cc4)cccc3C(=O)N([C@@H](C)CO)C[C@H]2C)cc1,1.3,0.045,-31,-16
C[C@@H]1CN([C@@H](C)CO)C(=O)c2cccc(NC(=O)Nc3ccc(F)cc3)c2O[C@H]1CN(C)C(=O)NC1CCCCC1,-1.3,-0.21,-1,8
O=C(NCC1CCCO1)c1ccc(NC(=O)c2cc(-n3cnnc3)ccc2Cl)cc1 (stereo not drawn),1.7,.,.,-7
O=C(Nc1sc2c(c1C(=O)NCc1ccco1)CCC2)c1sc2ccccc2c1Cl,2.3,.,.,-29
C[C@H]1CN([C@@H](C)CO)C(=O)c2cccc(NC(=O)C3CC3)c2O[C@H]1CN(C)S(=O)(=O)c1ccc(Cl)cc1,0.3,-0.41,90*,4
C[C@@H]1CCCCO[C@@H](CN(C)C(=O)NC2CCCCC2)[C@@H](C)CN([C@H](C)CO)C(=O)c2cc(NC(=O)C3CCCCC3)ccc2O1,1.0,-0.33,?,-15
C[C@@H]1O[C@@H](O[C@H]2[C@H](O[C@H]3[C@H](O)[C@@H](C(=O)O)O[C@@H](O[C@H]4CC[C@@]5(C)C(CC[C@]6(C)C5CC[C@]57OC[C@@]8(CCC(C)(C)CC85)[C@H](O)C[C@]76C)C4(C)C)[C@@H]3O[C@@H]3O[C@H](CO)[C@@H](O[C@@H]4OC[C@@H](O)[C@H](O)[C@H]4O)[C@H](O)[C@H]3O)O[C@H](CO)[C@H](O)[C@@H]2O)[C@H](O)[C@H](O)[C@H]1O (stereo partly drawn),-12,-0.039,42,-15
COC(=O)c1ccccc1NC(=O)C1CCCN(S(=O)(=O)c2ccccc2)C1 (stereo not drawn),-1.9,.,.,24
C[C@@H]1CN([C@H](C)CO)C(=O)c2cc(NS(=O)(=O)c3cn(C)cn3)ccc2O[C@H]1CN(C)Cc1ccc(C(=O)Nc2ccccc2N)cc1,3.6,-0.12,.,-17
Cc1ccc(S(=O)(=O)Nc2ccc3c(c2)C(=O)N([C@@H](C)CO)C[C@H](C)[C@@H](CN(C)C(=O)Nc2ccc4c(c2)OCO4)O3)cc1,1.5,.,.,-2

# A section from the list above, as a working copy:
SMILES,PD-1 reversal,YB-1 expr inh,Hedgehog inh,MITF inh
Cc1ccc(S(=O)(=O)N(C)C[C@H]2Oc3ccc(N(C)C)cc3CC(=O)N([C@@H](C)CO)C[C@@H]2C)cc1,.,-0.2,-12,8
Cc1ccc(S(=O)(=O)Nc2cccc3c2O[C@@H](CN(C)C)[C@@H](C)CN([C@H](C)CO)C3=O)cc1,.,0.2,12,-12
COc1ccc(NC(=O)N(C)C[C@@H]2Oc3c(NS(=O)(=O)c4ccc(OC)cc4)cccc3C(=O)N([C@@H](C)CO)C[C@H]2C)cc1,1.3,0.045,-31,-16
C[C@@H]1CN([C@@H](C)CO)C(=O)c2cccc(NC(=O)Nc3ccc(F)cc3)c2O[C@H]1CN(C)C(=O)NC1CCCCC1,-1.3,-0.21,-1,8
O=C(NCC1CCCO1)c1ccc(NC(=O)c2cc(-n3cnnc3)ccc2Cl)cc1 (stereo not drawn),1.7,.,.,-7
O=C(Nc1sc2c(c1C(=O)NCc1ccco1)CCC2)c1sc2ccccc2c1Cl,2.3,.,.,-29

# The list continues:
SMILES,PD-1 reversal,YB-1 expr inh,Hedgehog inh,MITF inh
COc1ccc(NC(=O)CN(c2ccc(F)c(Cl)c2)S(C)(=O)=O)cc1OC,0.4,.,.,-26
Cc1cc(C(=O)Nc2cccc3c2O[C@@H](CN(C)CC2CCCCC2)[C@H](C)CN([C@H](C)CO)C3=O)n(C)n1,.,-0.018,26,4
COc1ccc(-c2nnc(SCC(=O)O)n2C)cc1OC,0.7,.,.,4
C[C@H]1CN([C@@H](C)CO)C(=O)c2cc(NC(=O)Nc3ccc4c(c3)OCO4)ccc2O[C@H]1CN(C)Cc1ccc(-c2ccccc2)cc1,1.1,0.21,.,6
Cc1noc(C)c1NC(=O)Nc1ccc2c(c1)C(=O)N([C@H](C)CO)C[C@H](C)[C@@H](CN(C)S(=O)(=O)c1ccc(F)cc1)OCCCC[C@@H](C)O2,.,0.45,-25,-29
COc1ccc(S(=O)(=O)NCCO)cc1-c1nnc2c3ccccc3c(C)nn12,2.7,.,.,-25
COc1ccc2c(=O)c(CC(=O)O)coc2c1,.,-0.14,-39,-8
COC(=O)C1=C[C@H](O[C@@H]2O[C@H](CO)[C@@H](O)[C@H](O)[C@H]2O)C[C@H]2[C@]3(C)C[C@@H](c4ccoc4)OC(=O)[C@H]3CC[C@@]12C,3.6,-0.21,-1,4
C[C@@H]1CN([C@@H](C)CO)C(=O)c2cccc(NC(=O)Nc3ccc(C(F)(F)F)cc3)c2O[C@H]1CN(C)C(=O)Nc1ccc(C(F)(F)F)cc1,.,-0.39,-7,60
O=C(COc1ccc2ccccc2c1)Nc1ccccc1C(=O)Nc1ccccc1,0.4,.,.,20
C[C@H](CO)N1C[C@H](C)[C@H](CN(C)C(=O)NC2CCCCC2)Oc2ccc(NC(=O)NC3CCCCC3)cc2CC1=O,0.5,-0.017,24,-4
CC(C)NC(=O)Nc1cccc2c1O[C@@H](CN(C)CC1CCCCC1)[C@@H](C)CN([C@@H](C)CO)C2=O,2.4,-0.34,4,-1
COC(=O)c1ccccc1NC(=O)C(C)Oc1cccc(Cl)c1 (stereo not drawn),-2.2,.,.,-18
CCC(C(=O)Nc1ccccc1C(=O)N1CCCC1)N1C(=O)c2ccccc2C1=O (stereo not drawn),0.4,.,.,-5
C[C@H](CO)N1C[C@H](C)[C@H](CN(C)Cc2ccc(C(=O)O)cc2)Oc2ccc(NS(=O)(=O)c3ccc(F)cc3)cc2CC1=O,.,0.22,.,-11
C#C[C@]1(O)CCC2C3CCc4cc(O)ccc4C3CC[C@@]21C (stereo partly drawn),.,-0.1,-27,18
C[C@H](CO)N1C[C@H](C)[C@H](CN(C)C(=O)Nc2cccc3ccccc23)Oc2c(NC(=O)c3ccc(-c4nccs4)cc3)cccc2C1=O,.,0.55,-25,-19
Cc1ccc(S(=O)(=O)N(C)C[C@@H]2Oc3ccc(NC(=O)CCC(F)(F)F)cc3CC(=O)N([C@H](C)CO)C[C@H]2C)cc1,.,0.15,-41,-1
C[C@H]1CN([C@@H](C)CO)C(=O)c2cccc(NC(=O)c3ccc(-c4nccs4)cc3)c2O[C@@H]1CN(C)Cc1ccc(-c2ccccc2)cc1,.,-0.4,22,30
Cc1noc(C)c1NC(=O)Nc1ccc2c(c1)C(=O)N([C@H](C)CO)C[C@@H](C)[C@H](CN(C)S(=O)(=O)c1ccccc1)O2,0.0,-0.35,-25,-9
COc1ccc(NC(=O)CS(=O)(=O)c2ccc3ccccc3c2)cc1,-0.5,.,.,5
CCc1nc(SCC(=O)Nc2c(Cl)cccc2Cl)c(C#N)c(C(F)(F)F)c1C,2.0,.,.,-6
Cc1ccc2nsnc2c1S(=O)(=O)NC(C)c1ccccc1 (stereo not drawn),0.1,.,.,-3
C[C@@H]1CN([C@@H](C)CO)C(=O)c2cc(NC(=O)CCC(F)(F)F)ccc2O[C@@H]1CN(C)S(=O)(=O)c1ccc(F)cc1,-0.3,0.41,-23,3
COc1ccc(NC(=O)N(C)C[C@H]2Oc3ccc(NC(=O)CCCCCC(=O)Nc4ccccc4N)cc3C(=O)N([C@H](C)CO)C[C@@H]2C)cc1,0.5,-0.073,.,-6
C[C@H]1CN([C@@H](C)CO)C(=O)c2cccc(N(C)C)c2O[C@H]1CN(C)C(=O)NC1CCCCC1,0.6,0.035,-4,-4
COc1ccc(S(=O)(=O)Nc2cccc3c2O[C@H](CN(C)C(=O)Nc2ccc(F)cc2)[C@H](C)CN([C@@H](C)CO)C3=O)cc1,-0.7,0.067,13,6
Cc1ccc(S(=O)(=O)N(C)C[C@H]2Oc3ccc(NC(=O)CCC(F)(F)F)cc3CC(=O)N([C@H](C)CO)C[C@H]2C)cc1,0.0,0.14,-19,-1
CC(=O)c1cccc(NC(=O)NCc2cccnc2)c1,0.0,.,.,-41
COc1ccc(S(=O)(=O)N(C)C[C@H]2Oc3c(NC(=O)Nc4c(C)noc4C)cccc3C(=O)N([C@H](C)CO)C[C@@H]2C)cc1,1.7,-0.16,4,-14
C[C@@H]1CN([C@H](C)CO)C(=O)Cc2cc(NS(C)(=O)=O)ccc2O[C@@H]1CN(C)Cc1ccc(C(=O)O)cc1,1.6,0.22,-29,4
C[C@@H]1CN([C@@H](C)CO)C(=O)c2cc(NC(=O)Nc3cccc4ccccc34)ccc2O[C@@H]1CN(C)S(=O)(=O)c1cccs1,-0.4,-0.074,23,17
CCOc1ccc(CCC(=O)O)cc1,-1.0,0.09,-5,1
CCOC(=O)CSc1nc(Nc2ccccc2)c2cnc(N3CCOCC3)nc2n1,-3.4,0.02,42,4
Cc1ccc2nc(SCC(=O)Nc3ccc4c(c3)OCCO4)[nH]c2c1,-0.3,.,.,-52
COc1ccccc1-n1nnnc1SCC(=O)Nc1ccccc1C,-1.4,.,.,0
COc1ccc(S(=O)(=O)Nc2cccc3c2O[C@@H](CN(C)S(=O)(=O)c2cn(C)cn2)[C@H](C)CN([C@H](C)CO)C3=O)cc1,1.1,0.45,4,-8
Cc1noc(C)c1NC(=O)Nc1ccc2c(c1)C(=O)N([C@H](C)CO)C[C@@H](C)[C@H](CN(C)Cc1ccncc1)O2,1.2,0.39,-4,-5
Cc1ccc(S(=O)(=O)N(C)C[C@H]2Oc3ccc(NC(=O)CCCN(C)C)cc3C(=O)N([C@H](C)CO)C[C@H]2C)cc1,1.5,-0.24,16,8
CNC(=O)c1ccccc1S(=O)c1cccc2cccc(C(=O)O)c12 (stereo not drawn),1.0,-0.1,-11,-7
C[C@H]1CN([C@@H](C)CO)C(=O)Cc2cc(NS(=O)(=O)c3cn(C)cn3)ccc2O[C@@H]1CN(C)C(=O)Nc1cccc2ccccc12,.,-0.9,.,14
CNC[C@H]1Oc2c(NS(=O)(=O)c3c(C)noc3C)cccc2C(=O)N([C@H](C)CO)C[C@H]1C,1.3,-0.43,11,-2
C[C@H](CO)N1C[C@H](C)[C@H](CN(C)C(=O)Nc2ccc3c(c2)OCO3)Oc2ccc(NS(=O)(=O)c3cccs3)cc2C1=O,-1.7,0.55,-7,6
Cc1noc(C)c1S(=O)(=O)Nc1cccc2c1O[C@@H](CN(C)C(=O)Nc1cccc3ccccc13)[C@@H](C)CN([C@H](C)CO)C2=O,-0.3,0.13,6,7
C[C@H]1CN([C@@H](C)CO)C(=O)Cc2cc(NC(=O)C3CCCCC3)ccc2O[C@H]1CN(C)Cc1ccc2c(c1)OCO2,-0.9,-0.1,2,1
COC(=O)c1ccccc1NC(=O)COc1cc(C)c(Br)cc1C,0.1,.,.,-32
Cc1ccc(N(C(C)C(=O)Nc2ccccc2Br)S(C)(=O)=O)cc1C (stereo not drawn),2.8,.,.,-6
COc1ccccc1OCC(=O)Nc1cccc(N(C)S(C)(=O)=O)c1,-0.1,.,.,2
C[C@@H]1CN([C@H](C)CO)C(=O)c2cc(NS(=O)(=O)c3ccc(F)cc3)ccc2O[C@H]1CN(C)Cc1ccncc1,-0.9,0.089,.,4
COc1cc(C2c3c(oc4ccc(Cl)cc4c3=O)C(=O)N2Cc2ccco2)cc(Br)c1O (stereo not drawn),-1.1,.,.,7
